Bioassay records deposited in PubChem BioAssay by National Center for Advancing Translational Sciences (NCATS).
TDP1 cell CPT: DT40-hTDP1 cell growth loss with CPT; Potency, µM (highest dose often 46.2 µM), for the others: top-dose activity change, negative = growth inhibition, most hits filed as inhibitors; hit rate 12% among 420,000; chicken DT40 Tdp1-/-;hTDP1 cells + 20 nM CPT, ATP luminescence, 48 h; also: nearly all actives have a fitted effect of over 55% in size
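Chicken DT40 Tdp1-/- cells stably complemented with human TDP1 were seeded at 400 cells/well in medium containing 20 nM camptothecin, exposed to pin-transferred compounds, and grown at 37 °C for at least 48 hr. Viability was read as ATP luminescence.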
N370S GC: inhibitors or activators of N370S glucocerebrosidase for Gaucher disease. P04062. Potency, µM (doses to about 59.4 µM), without a hit: top-dose activity change, negative = inhibition, actives largely listed as inhibitors. N370S GC spleen homogenate, 4MU-glucoside fluorescence. hit rate 0.092% among 330,000;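 also: 0% = full enzyme activity and -100% = no enzyme basal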
The depositor's hits bear a star; ? = inconclusive; / = not tested or not shown; & = joins results of further samples; [ ] = remark or other dose. Calls follow the shape of the dose curve; as a rule, active = well fitted curve in the direction sought with a large enough effect; inconclusive = small, poorly fitted or top-dose-only effect, or another doubt; inactive = no such curve, though single readings can be large; an effect the other way counts as inactive or inconclusive. Unless noted, % is scaled to controls: 0 for no effect and ±100 for the full control effect; potency is read from the fitted curve at half-maximal effect. An excerpt; most or all hits stand in other tables.

SMILES | TDP1 cell CPT | N370S GC
CN(C)C(=O)c1c(NC(=O)c2ccco2)sc2c1CCCCC2 | ? | 3.3%
Cc1cc(NS(=O)(=O)c2ccc(NC(=O)c3cnc4scc(C)n4c3=O)cc2)nc(C)n1 | -4.6% | 6.9%
COc1ccc(/C=N\NC(=O)c2ccc(F)cc2)cc1COc1ccccc1C(N)=O | -24.0% | 0.4%
CC(CCc1ccccc1)NC(=O)c1ccc(-n2cncn2)c([N+](=O)[O-])c1 (stereo not given) | 0.9% | 2.6%
Clc1c(-c2ccccc2)nnn1-c1ccccc1 | 4.9% | 22.7%
O=C(/C=N/O)Nc1cccnc1 | -0.1% | 0.1%
COc1ccc(CC2C(=O)OC(C)(C)OC2=O)cc1 | 4.3% | ?
CC(C)(/C=N/NC(=O)CSCc1ccc(Cl)cc1)CCC#N | -4.9% | -1.3%
O=C1CSC2=NCN(c3ccccc3)CN12 | -14.4% | 0.1%
COc1cc(-c2nnc(Cn3cc(C(F)(F)F)ccc3=O)o2)cc(OC)c1OC | ? | -1.3%
Cc1ccc(Cl)cc1NC(=O)c1ccc(CSc2nnnn2C)cc1 | 2.4% | -1.5%
CNc1ccc(Br)cc1C(O)c1ccccc1 (stereo not given) | 0.6% | 2.3%
CCOc1cc(/C=C2\N=C(C)OC2=O)cc(Br)c1OCC(=O)OC | ? | ?
COc1ccc(-n2nccc2-c2nn(-c3cccc(OC)c3)c(=O)n(C)c2=O)cc1 | ? | 6.5%
CC(C)[C@H](NC(=O)OCc1ccccc1)C(=O)OCc1cc(=O)oc2cc(O)ccc12 | ? | ?
CCC(C(=O)NC1CCCC1)N(C(=O)Cn1nnc(-c2ccc(OC)c(OC)c2)n1)c1cccc(O)c1 (stereo not given) | -13.6% | -1.6%
COc1ccc(N2CCN(c3ncccc3-c3nc(-c4ccccc4C)no3)CC2)cc1 | -20.5% | /
CCOc1ccc(NC(=S)Nc2ccc(F)cc2)cc1 | ? | -4.0%
O=C1c2ccccc2C(=O)N1CC#CCN1CCN(C(c2ccccc2)c2ccccc2)CC1 | ? | -11.7%
Cc1ccc(C)c2[nH]c(=O)c(CN(CC3CCCO3)S(=O)(=O)c3ccc4c(c3)OCCO4)cc12 (stereo not given) | ? | -16.9%
O=Cc1ccccc1-c1cn(CCCOCc2ccccc2)nn1 | ? | -3.1%
Cc1cc(C)cc(NC(=O)CSc2ccccc2)c1 | -19.7% | 17.2%
Cc1nnc(SC(C)C(=O)Nc2ccc(N3CCOCC3)cc2)n1Cc1ccccc1 (stereo not given) | -0.6% | -20.4%
CC(C)CC(C(=O)O)C(C)CC(=O)Nc1ccn(-c2ccccc2)n1 (stereo not given) | 0.6% | 1.6%
C=C(C)C1CC=C(C(=O)O)CC1 (stereo not given) | 11.1% | 2.6%&-10.8%
More structures follow:
SMILES | TDP1 cell CPT | N370S GC
O=C(Nc1ccc(NC(=O)c2cc3ccccc3o2)cc1)c1ccc2c(c1)OCCO2 | -8.1% | 6.5%
CCN1CCN(CCC(=O)Nc2ccc3c(c2)OCO3)CC1 | -1.5% | -9.4%
CCOCCCN1CC(C(=O)NCCc2ccc(C)cc2)CC1=O (stereo not given) | 5.5% | 6.0%
COc1ccccc1NC(=S)NC(=O)Cc1ccc(Cl)cc1 | ? | -16.8%
C=CCNC(=S)Nc1ccc2nc(C)oc2c1 | -8.5% | -0.5%
CCOc1ccccc1C1CC(c2ccc(Br)cc2)Nc2nc(N)nn21 (stereo not given) | ? | 5.7%
CCOC(=O)c1cnc(-n2nc(C)cc2C)nc1Oc1ccc(C#N)cc1 | -10.5% | -9.8%
Cc1ccc(CC(=O)N2CCN(c3ccccc3F)CC2)cc1 | -7.6% | 2.9%
Cc1ccccc1N=CC1=C(O)c2ccccc2C1=O | ? | 9.2%
CCOC(=O)c1sc2nc3c(SCC(=O)O)cc(C(=O)c4cc(F)ccc4O)cn3c(=O)c2c1C | -10.3% | -2.7%
O=C(COc1ccccc1Cl)Nc1cccc(S(=O)(=O)NC2=NCCCCC2)c1 | ? | -14.8%
CN1C(=O)N(C)C2C1N(C)S(=O)(=O)N2C (stereo not given) | 8.1% | 6.2%
CCc1ccc2nc(N(CCCN(C)C)C(=O)c3ccc4c(c3)OCCO4)sc2c1 | ? | -23.8%
CCn1nnnc1SCC(=O)Nc1nc(C)c(C)s1 | -3.1% | -4.2%
C=CCN1C(=O)/C(=N/n2cnnc2)c2ccccc21 | 5.8µM* | 4.9%
COc1ccc(Cl)cc1NC(=O)CCCN1C(=O)CCC1=O | -17.5% | -0.2%
O=C(COCc1nc2ccccc2c(=O)[nH]1)NCC1CCCCC1 | -17.8% | 4.1%
CCS(=O)(=O)c1ccc(C(=O)Nc2ccccc2)c(Cl)c1Cl | ? | -5.5%
Cc1nn(CC(=O)NCCCN2CCCCC2)c(=O)c2cc(-c3ccccc3)nn12 | 2.0% | -15.2%
O=C(Nc1ccc(OCc2ccccc2)cc1)c1cccs1 | ? | -4.1%
COc1cccc(N2CC(NC(=O)/C=C\c3ccc(OC)c(OC)c3)CC2=O)c1 (stereo not given) | -6.9% | /
Cc1ccc(NC(=O)C2CCCCC2)cc1C | 4.0% | 3.2%
COCCN(Cc1nnc(-c2cccs2)o1)C(=O)c1cccc(S(=O)(=O)N2CCOCC2)c1 | -9.5% | /
CCCCC(=O)Nc1ccc(C(=O)NNC(=S)NC(=O)c2cccs2)cc1 | ? | -2.4%
CCn1nc(C)c(NC(=O)/C=C/c2ccc(OC)c(COc3ccc(Br)cc3)c2)c1C | 16.4µM* | 26.7%
(cont.)
SMILES | TDP1 cell CPT | N370S GC
C=CCn1c(=S)[nH]c2scc(-c3ccco3)c2c1=O | ? | -2.1%
N#Cc1c(SCC(N)=O)nc2c(c1-c1ccc(O)cc1)CCCC2 | -12.1% | -4.0%
COc1ccc(S(=O)(=O)N2CCN(C(=O)[C@@H]3CCC(=O)N3C3OC(=O)c4ccccc43)CC2)cc1 (stereo not given in full) | -0.1% | 4.2%
CCOC(=O)c1cc(CC)sc1NC(=O)CN1C(=O)C(=O)N(CC(C)C)C1=O | 1.1% | 0.2%
COc1ccc(CC(C)NS(=O)(=O)c2ccc3c(c2)CCN3S(C)(=O)=O)cc1OC (stereo not given) | -12.4% | -0.1%
O=C(Cn1cc([N+](=O)[O-])cn1)N1CCN(c2ccccc2)CC1 | -14.9% | -2.1%
O=C(Nc1ccc(N2CCCCC2)cc1)c1ccccc1 | ? | 4.9%
Cc1cccc(-c2nc(CSCC(=O)N3CCN(c4ccccn4)CC3)c(C)o2)c1 | 20.6µM* | 5.9%
COc1ccc(CNC(=O)C2COc3ccccc3O2)c(OC)c1 (stereo not given) | -28.3% | 25.5%
Cn1c(SCc2nc3ccccc3[nH]2)nnc1-c1cccs1 | 1.9% | 11.6%
O=C(CSc1nc(-c2cccs2)cc(C(F)(F)F)n1)NCc1ccco1 | ? | -15.5%
CCc1nc(SCC(=O)NNC(=O)c2ccc(C)cc2)c2ccccc2n1 | -13.1% | -0.6%
CCOC(=O)C1CCCN(C(=O)C2CC(=O)N(c3ccc(C)cc3)C2)C1 (stereo not given) | -15.0% | 6.8%
O=C(CSc1nccn1-c1ccccc1)c1ccc(Br)cc1 | -18.5% | 7.5%
CCN(CC(=O)NCc1cccs1)C(=O)/C=C/c1cccc(Cl)c1Cl | 0.1% | -0.4%
O=C(c1ccc(CS(=O)c2ccccc2Cl)o1)N1CCN(c2ccccc2)CC1 (stereo not given) | 0.82µM* | 5.8%
Cc1nc2ccc(S(=O)(=O)Nc3ccccc3C)cc2s1 | ? | -7.0%
COc1cc(SC)ccc1C(=O)OCC(=O)N1CCN(C(C)=O)CC1 | -16.5% | -2.2%
CN1CCC(N(C)C(=O)COc2ccc(S(=O)(=O)N3CCOCC3)cc2)CC1 | 0.3% | 4.8%
CCN(CC)C1CCN(c2nc3nonc3nc2NCCOC)C1 (stereo not given) | -17.8% | -2.1%
[Li+] | / | 4.0%
CN1CCN(C2=NC(=O)/C(=C/c3cn[nH]c3-c3ccccc3)S2)CC1 | ? | -2.4%
C[C@H](NC(=O)C1CC(=O)N(c2ccc3c(c2)OCCO3)C1)C(=O)NC1CCCC1 (stereo not given in full) | -5.4% | -0.2%
CN(C(=O)C1CCOC1)c1nnc(C2CCOC2)s1 (stereo not given) | -15.3% | 6.9%
[2H]C([2H])(CCOS(N)(=O)=O)c1ccccc1 | -6.2% | -12.9%
Later entries
SMILES | TDP1 cell CPT | N370S GC
COc1ccc2c(=O)c3c(=O)n(-c4ccccc4)c(-c4ccc(C)cc4)nc3oc2c1 | -24.5% | -6.7%
CC(C(=O)NCc1ccccc1)n1cc([N+](=O)[O-])cn1 (stereo not given) | -3.0% | -0.9%
O=C(/C=C/c1ccc(S(=O)(=O)NCc2ccco2)cc1)NCc1ccccc1Cl | ? | -0.4%
Cc1cccc(-c2nnc(SC(C)C(=O)N3CCOCC3)o2)c1 (stereo not given) | 3.1% | -12.9%
O=c1c2c3c(sc2n(CCN2CCOCC2)c(=O)n1Cc1ccco1)CCCCC3 | 8.2µM* | 11.2%
CCN(CC(=O)NCc1cccs1)C(=O)c1cccc(S(=O)(=O)Nc2ccc(F)cc2)c1 | -16.2% | /
CCN1C(=O)N[C@@H](c2ccccc2)C(C(=O)OC)=C1C | -10.8% | -7.0%[12.8 µM]
CC(=O)c1c(COC(=O)c2ccc(F)cc2)nc2ccccc2[n+]1[O-] | -12.0% | -1.7%
COc1ccc(Cl)cc1C(=O)NNC(=O)c1n[nH]c2ccccc12 | -3.3% | /
C/C(=N\NC(=O)C1CC1)c1ccc(N2CCOCC2)cc1 | 3.5% | 1.9%
Cn1c(=O)[nH]c(=O)c2c1nc(N1CCOCC1)n2CC(=O)c1ccccc1 | 3.3% | 1.3%
Cn1c(=O)[nH]c(=O)c2c1nc(NCc1ccccc1)n2Cc1ccc(F)cc1 | -12.3% | -3.6%
CC(C)(C)c1ccc(C(=O)Nc2ccc(F)cc2)s1 | 0.2% | 27.7%
Cc1noc(NS(=O)(=O)c2ccc(N/C=C/C(=O)c3ccc4c(c3)OCO4)cc2)c1C | -1.8% | 9.1%
Cc1nc2ccc(NC(=O)c3cc(Cl)ccn3)cc2s1 | -6.3% | -2.4%
CC(Sc1nnc(Cc2cccs2)n1C1CCCCC1)C(=O)NCc1ccco1 (stereo not given) | 14.6µM* | -27.3%
CCCCNCCCOc1cccc(Cl)c1Cl | 14.6µM* | 0.3%
O=[N+]([O-])c1ccc(NCCOc2ccccc2Cl)nc1 | -24.1% | -5.1%
CN1C(=O)N(C)C2C1N(CN1CCCCC1)C(=O)N2CN1CCCCC1 (stereo not given) | ? | -3.1%
CCc1c(C)n([O-])c2c([n+]1=O)CCCCC2 | -0.6% | -0.9%
O=C1CCCN1CC(=O)N1CCCC(Nc2cccc(F)c2)C1 (stereo not given) | -4.4% | 0.7%
Cc1n[nH]c(=O)nc1NCC1CCCO1 (stereo not given) | 3.6% | 4.6%
O=C(Nc1cccc(O)c1)C(Cc1ccccc1)N1C(=O)c2cccc3cccc(c23)C1=O (stereo not given) | 4.8% | 21.3%
O=C(NNc1nc2c(F)cccc2s1)c1ccccc1 | -18.0% | 0.4%
Nc1c(N(Cc2ccccc2)C(=O)COc2cccc(Cl)c2)c(=O)[nH]c(=O)n1Cc1ccccc1 | 20.6µM* | -2.1%
Continued:
SMILES | TDP1 cell CPT | N370S GC
COc1ccc2c(c1)c1ncn(CC3CCCO3)c(=O)c1n2C (stereo not given) | 10.9% | 27.1%
CSc1ccccc1C(=O)N1CCCCC1 | -15.4% | 1.8%
O=C(OCCN1C(=O)c2ccccc2C1=O)c1ccc(S(=O)(=O)N2CCCCCC2)cc1 | -17.9% | 11.2%
O=C(NCc1ccc(F)cc1)c1cc(-c2cccs2)on1 | -22.7% | -1.6%
Nc1nc2c(s1)CC(c1ccccc1)CC2 (stereo not given) | -25.8% | -15.8%
O=C(Nc1cccc(Cl)c1)Nc1nnc(-c2ccccc2)o1 | ? | -21.8%

Reprinted from the results shown, 14 compounds:
SMILES | TDP1 cell CPT | N370S GC
CCCCNCCCOc1cccc(Cl)c1Cl | 14.6µM* | 0.3%
O=[N+]([O-])c1ccc(NCCOc2ccccc2Cl)nc1 | -24.1% | -5.1%
CN1C(=O)N(C)C2C1N(CN1CCCCC1)C(=O)N2CN1CCCCC1 (stereo not given) | ? | -3.1%
CCc1c(C)n([O-])c2c([n+]1=O)CCCCC2 | -0.6% | -0.9%
O=C1CCCN1CC(=O)N1CCCC(Nc2cccc(F)c2)C1 (stereo not given) | -4.4% | 0.7%
Cc1n[nH]c(=O)nc1NCC1CCCO1 (stereo not given) | 3.6% | 4.6%
O=C(Nc1cccc(O)c1)C(Cc1ccccc1)N1C(=O)c2cccc3cccc(c23)C1=O (stereo not given) | 4.8% | 21.3%
O=C(NNc1nc2c(F)cccc2s1)c1ccccc1 | -18.0% | 0.4%
Nc1c(N(Cc2ccccc2)C(=O)COc2cccc(Cl)c2)c(=O)[nH]c(=O)n1Cc1ccccc1 | 20.6µM* | -2.1%
COc1ccc2c(c1)c1ncn(CC3CCCO3)c(=O)c1n2C (stereo not given) | 10.9% | 27.1%
CSc1ccccc1C(=O)N1CCCCC1 | -15.4% | 1.8%
O=C(OCCN1C(=O)c2ccccc2C1=O)c1ccc(S(=O)(=O)N2CCCCCC2)cc1 | -17.9% | 11.2%
O=C(NCc1ccc(F)cc1)c1cc(-c2cccs2)on1 | -22.7% | -1.6%
Nc1nc2c(s1)CC(c1ccccc1)CC2 (stereo not given) | -25.8% | -15.8%
